A1 inh: inhibitors of the anti-apoptotic protein A1, read as caspase activation | MEF A1-2A-BIM cells, Caspase-Glo 3/7 luminescence, 3 h; percent of clofoctol response, vehicle zero | caspase activation, % (no concentration beside the values) | hit rate 0.066% among 330,000 | AID 2462;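 active means over half of replicate activation scores above 10%, or exactly half above 10 with the replicate mean above 10; inconclusive means replicate mean below 10 yet half the replicates above 10; inactive means over half of replicates below 10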;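 further: wells of about 30 µL received 50 nL stock; many hits fall short of the cut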
LANA-H2A inh: blocks KSHV LANA binding to histone H2A/H2B; Q9QR71; cell-free LANA-H2A/H2B peptide, fluorescence polarization; inhibition, % (concentration not given with the values); hit rate 0.6% among 320,000; in the data active means inhibition mostly above about 10%, no sharp cut-off; inactive means mostly below about 6.7%;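 further: stock transfer was 7.5 nL into about 10 µL; 0% = median of vehicle wells and 100% = median of positive control wells; one replicate is shown; the record names a cut of 25% in any replicate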
Target sequence (Q9QR71 whole entry, looked up): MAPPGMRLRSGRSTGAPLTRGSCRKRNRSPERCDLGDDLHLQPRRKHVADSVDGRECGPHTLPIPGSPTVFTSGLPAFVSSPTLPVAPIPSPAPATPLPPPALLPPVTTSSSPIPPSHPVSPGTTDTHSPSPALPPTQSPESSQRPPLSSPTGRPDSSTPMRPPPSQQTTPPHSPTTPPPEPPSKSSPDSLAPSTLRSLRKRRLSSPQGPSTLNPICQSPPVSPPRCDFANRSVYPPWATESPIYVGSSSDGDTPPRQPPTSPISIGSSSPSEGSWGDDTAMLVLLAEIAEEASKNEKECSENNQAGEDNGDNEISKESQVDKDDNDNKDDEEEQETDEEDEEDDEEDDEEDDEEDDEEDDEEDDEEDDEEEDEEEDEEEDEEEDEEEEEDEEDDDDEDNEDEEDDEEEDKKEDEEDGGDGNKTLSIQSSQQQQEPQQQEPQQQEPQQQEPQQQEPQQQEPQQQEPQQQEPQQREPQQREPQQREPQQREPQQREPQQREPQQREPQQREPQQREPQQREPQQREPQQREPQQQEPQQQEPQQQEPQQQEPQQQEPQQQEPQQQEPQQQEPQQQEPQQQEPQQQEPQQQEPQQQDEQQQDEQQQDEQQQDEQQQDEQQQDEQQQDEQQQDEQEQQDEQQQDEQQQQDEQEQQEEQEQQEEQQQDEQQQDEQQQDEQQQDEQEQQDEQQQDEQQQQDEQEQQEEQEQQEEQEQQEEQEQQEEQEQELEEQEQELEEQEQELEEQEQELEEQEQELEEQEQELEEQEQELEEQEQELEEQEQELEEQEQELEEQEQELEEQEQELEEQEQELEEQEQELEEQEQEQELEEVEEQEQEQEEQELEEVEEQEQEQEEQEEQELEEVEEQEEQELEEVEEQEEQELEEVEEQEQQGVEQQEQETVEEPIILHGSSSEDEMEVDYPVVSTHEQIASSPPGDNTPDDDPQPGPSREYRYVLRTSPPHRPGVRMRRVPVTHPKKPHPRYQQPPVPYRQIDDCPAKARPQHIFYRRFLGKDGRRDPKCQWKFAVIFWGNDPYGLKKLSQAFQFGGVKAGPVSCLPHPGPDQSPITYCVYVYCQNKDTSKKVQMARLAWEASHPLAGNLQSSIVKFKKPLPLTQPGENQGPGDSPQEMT
T cruzi inh: blocks replication of Trypanosoma cruzi. T. cruzi beta-gal in NIH3T3, luminescence, 90 h. inhibition, % (concentration not given with the values). hit rate 1.4% among 300,000;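 active means mean inhibition across valid replicates above about 55%, limit read from the data; inconclusive means mean below that limit but half or more replicates reach it; inactive means mean below it, under half of replicates reach it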;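 further: signal also drops with host cell toxicity which is not excluded here; 0% = plate median of DMSO wells and 100% = zero luminescence signal; higher percent means less beta-gal luminescence so fewer parasites; stock transfer was 50 nL into about 50 µL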
Ecoli rRNA inh: selective bacterial rRNA inhibition in E. coli; E. coli WT GFP vs humanized-ribosome RFP mutants, fluorescence, 24 h; hits give low values; DMSO median 0, no signal -100; GFP signal change (wild-type ribosome), % (no concentration beside the values); hit rate 1.6% among 350,000; AID 720706;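 active means significant combined selectivity score with lowered wild-type GFP, culture density cut under 30%, mutant RFP and density less affected; inactive means any of these conditions unmet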; further: one replicate is shown; some compounds called inactive have numbers as strong as hits
Beta cell apopt: beta cell apoptosis inhibition; protection from apoptosis, % (concentration not given with the values); AID 435005; hit rate 0.8% among 300,000; INS-1E cytokine-induced death, ATP luminescence, 48 h; percent of positive-control rescue, neutral wells zero;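 active means all replicates at 75% or more, or half of them and the mean; inconclusive means half reach 75% but not the mean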;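 further: 0% = cytokine-treated negative control wells and 100% = positive control rescue; higher means more ATP so stronger rescue from cytokine killing; wells of about 40 µL received 100 nL stock; the first replicate is given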
B2AR ag: activates human beta-2 adrenergic receptor causing internalization | P07550 | Am2.2-beta2AR cells, FAP receptor internalization, flow cytometry; reference of the scale not given here | response, % (no concentration beside the values) | hit rate 0.43% among 340,000 | AID 504454;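 active means response above a set limit, near 3 SD of response in nonfluorescent compounds, cut at about 42% in these data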;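 further: stock transfer was 100 nL into about 11 µL; a reference agonist was the positive control; negative values mostly stem from fluorescent compounds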
ALR H2O2 inh: blocks human ALR sulfhydryl oxidase activity; AID 485317; purified ALR, DTT oxidation, H2O2 HRP-luminol luminescence; hit rate 3.8% among 290,000; P55789; inhibition, % (test concentration not listed);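 active means mean and each replicate at 75% or more; inconclusive means only one of the two met; inactive means neither met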;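 further: stock transfer was 7.5 nL into about 7.5 µL; 0% = neutral wells and 100% = wells with inactivated enzyme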
Calb FLC: C. albicans growth modulation with fluconazole. C. albicans CaCi-2 (fluconazole-resistant clinical isolate) + fluconazole, Alamar Blue growth, 48 h. growth inhibition, % (no concentration beside the values). hit rate 0.57% among 300,000. AID 1979;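 active means most replicates above 75%; inconclusive means exactly half above 75%; inactive means most below 75%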;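 further: all wells also contain fluconazole at 8 µg/ml as a sub-toxic cotreatment; 0% = median of DMSO wells and 100% = median of geldanamycin control wells; wells of about 8 µL received 7.5 nL stock; the first replicate is given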
Ecoli rRNA inh OD600: second read-out of Ecoli rRNA inh, no call of its own (marks repeat the call); OD600 change, %; measured here: OD600 growth;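 optical density of the mix in the first replicate; 0 = DMSO median and -100 = no signal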
Ecoli rRNA inh RFP: further read-out of Ecoli rRNA inh, marked with its call; RFP signal change, %; measured here: RFP humanized mutant strains;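 first replicate; 0 = DMSO median and -100 = no signal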
* hit, by the source's call; ? = inconclusive; . = no result given; & = joins results of further samples. A portion of the library; rates above refer to the full screens.

SMILES	A1 inh	LANA-H2A inh	T cruzi inh	Ecoli rRNA inh	Ecoli rRNA inh OD600	Ecoli rRNA inh RFP	Beta cell apopt	B2AR ag	ALR H2O2 inh	Calb FLC
CCC(=O)Nc1ccc(NC(=S)NC(=O)/C=C/c2ccccc2)cc1	-0.3	7.1	-11	.	.	.	3	-21	-9	-8
O=C(NCc1ccco1)/C(=C\c1ccco1)NC(=O)c1ccc(Br)o1	0.6	-2.1	-6	.	.	.	-16	1	-5	-2
Cc1ccc(OC(=O)CN2C(=O)c3ccccc3C2=O)cc1C	-0.1	8.8	-1	-8	0	-2.9	6	-2	6	4
Cc1cc(NC(=O)c2nn3cccnc3c2Cl)no1	-0.7	-3.3	-19	.	.	.	1	-10	-1	?
Cc1cccc(OCc2nnc(NC(=O)c3cccs3)s2)c1	2.1	3.2	-1	.	.	.	-2	-16	-17	3
COc1ccc(C(C(=O)NC2CCCCC2)N(C(=O)CCl)c2ccc(C)cc2)cc1 (configuration not stated)	2.0	-2.5	20	2	14	-6.9	5	44*	-10	-6
O=C(CSCc1ccccc1)Nc1ccc(S(=O)(=O)N2CCOCC2)cc1	-0.5	-1.7	5	.	.	.	-3	-7	26	2
CCc1ccc(NC(=O)Cn2cc([N+](=O)[O-])nc2C)cc1	0.5	4.2	-15	1	0	2.9	-10	2	-3	-5
Cc1ccc(S(=O)(=O)NNC(=O)c2cnn(-c3ccccc3)c2C(F)(F)F)cc1	0.4	-0.3	-4	-18	0	0.9	6	-3	28	2
COc1cc(-c2nc(-c3ccc4c(c3)-c3ccccc3S4(=O)=O)c(-c3ccccc3)[nH]2)cc(OC)c1O	-0.9	-2.1	51	.	.	.	10	20	-5	5
C=CCOc1cccc(C2C(C(=O)c3ccco3)=C(O)C(=O)N2CCN(CC)CC)c1 (configuration not stated)	-0.6	0.7	-3	.	.	.	2	-5	-2	17
CCN(CC)S(=O)(=O)c1cccc(C(=O)N[C@H](C(=O)Nc2nc3ccccc3s2)C(C)C)c1	-0.7	1.4	-12	3	-8	-7.0	-1	4	-2	2
O=C(NNC1=NCCC1)c1ccc(Br)cc1	1.3	-0.5	-20	.	.	.	-5	0	-9	10
O=C1CC/C=C\C[C@@H](CC(=O)N(CCO)Cc2ccccc2)C(=O)N[C@H](Cc2c[nH]c3ccccc23)CO1	2.9	0.9	.	-7	-3	-4.4	-7	0	4	.
CCOCc1cc(CN2CCCC(CNC(=O)c3ccco3)C2)ccc1OC (configuration not stated)	-2.3	-4.1	25	1	6	-3.3	9	1	-5	7
Cc1c(NC(=O)c2ccc(Br)o2)c(=O)n(-c2ccccc2)n1C	0.8	2.1	-8	.	.	.	0	-4	12	5
C#CCOCCOCCOCCNc1nc(N2CCN(C(=O)CCCCCCCCCCNC(=O)Cn3cc(CCCCCN)nn3)CC2)nc(N2CCN(C(=O)CCCCCCCCCCNC(=O)[C@H]([C@@H](C)CC)n3cc(CCCCN=C(N)N)nn3)CC2)n1	-2.9	-63	.	.	.	.	86*	-500	-12	.
C/C(CC(C)C)=N\NC(=O)Nc1ccccc1	0.8	2.6	-20	15	1	-2.2	-2	-2	-4	20
O=C(NCc1cn(-c2ccccc2)nc1-c1ccc(F)cc1)c1cccc([N+](=O)[O-])c1	0.4	-3.1	61*	4	1	-0.2	15	10	-5	12
COc1ccc(CNC(=O)CCc2nc3cc(S(=O)(=O)N(C)C)ccc3n2C)cc1OC	1.6	1.4	-9	-3	0	-4.5	-6	3	-17	-2
CC(C)(C)c1ccc(OC(=O)c2ccc(-n3cncn3)nc2)cc1	1.0	-0.6	-7	19	10	-9.1	-1	.	-6	-6
O=C(NCc1ccco1)c1cccc(Br)c1	1.2	4.5	-4	19	10	-0.3	-5	-4	-5	2
Cc1ccc(NC(=O)Nc2cccc([N+](=O)[O-])c2)nc1	-2.5	-0.6	6	-1	12	-2.1	2	-1	-6	0
O=[N+]([O-])c1ccccc1S(=O)(=O)N(CC1CO1)c1ccccc1 (configuration not stated)	0.9	13*	-24	-1	0	-1.5	0	3	.	7
Cc1ccc(Cn2cnc3c(nnn3Cc3ccc(Cl)cc3)c2=O)cc1	-0.2	-0.5	5	.	.	.	-1	14	-7	6

More records follow:
SMILES	A1 inh	LANA-H2A inh	T cruzi inh	Ecoli rRNA inh	Ecoli rRNA inh OD600	Ecoli rRNA inh RFP	Beta cell apopt	B2AR ag	ALR H2O2 inh	Calb FLC
C#CCOCCOCCOCCNc1nc(N2CCN(C(=O)[C@H]([C@@H](C)CC)n3cc(CCC(=O)O)nn3)CC2)nc(N2CCN(C(=O)[C@H](C)n3cc(CCCN=C(N)N)nn3)CC2)n1	0.8	0.4	-5	-2	2	1.1	-1	-2	-2	-9
CCS(=O)(=O)N1N=C(c2ccccc2)CC1c1ccc2nccnc2c1 (configuration not stated)	-0.6	2.2	-14	.	.	.	.	3	-8	9
O=C(Nc1cccc([N+](=O)[O-])c1)C(=O)N1CCCCC1	-5.4	3.1	-18	2	7	-1.3	1	6	-19	-2
COc1ccc(C(=O)NNC(=S)NC(=O)c2ccc(Br)o2)cc1OC	1.1	1.9	20	-38	-47	-9.0	7	0	86*	-1
O=C(CSc1nnc(-c2ccncc2)n1-c1ccc(Cl)cc1)N1CCOCC1	1.0	2.3	-5	.	.	.	-5	3	0	15
CCOc1ccc(NC(=S)NC(=O)c2cnn(CC)c2)c([N+](=O)[O-])c1	.	.	11	4	7	0.7	.	-13	.	-2
CCN(CCNC(=O)CN(C)S(=O)(=O)c1cccc2nsnc12)c1ccccc1	-0.8	1.7	3	.	.	.	1	-1	98*	8
Clc1ccc(NCc2cccnc2)cc1	0.4	0.5	53	0	12	-2.4	-1	-8	99*	12
CC(CCc1ccccc1)NS(=O)(=O)c1ccccc1 (configuration not stated)	0.5	-1.8	2	.	.	.	1	3	-13	-8
COc1cc(OC)cc(C(=O)NCC(=O)NCc2ccccn2)c1	-1.2	6.1	.	3	11	-3.1	-2	-7	.	.
O=C(Nc1ccccc1C(=O)N1CCCC1)c1cccc(S(=O)(=O)N2CCCCCC2)c1	0.0	-1.2	3	.	.	.	7	-4	2	1
O=C(/C=C/c1ccc(Br)o1)NCCCN1CCOCC1	-0.5	6.4	4	19	16	1.0	.	-1	-9	20
CC(C)Cn1c(-c2ccccc2)nc(=S)c2c1CCCC2	-1.5	0.3	5	.	.	.	0	-1	-15	-11
CNC[C@@H]1Oc2c(NC(=O)Nc3ccc(F)cc3)cccc2C(=O)N([C@H](C)CO)C[C@@H]1C	-0.3	-10	.	1&10	4&13	-0.3&1.1	-7	.	2	.
CC(C)N1CC(C(=O)Nc2ccc(Br)c(Cl)c2)CC1=O (configuration not stated)	-0.5	-0.3	-12	.	.	.	-7	-8	10	13
O=C(Cc1ccccc1)Nc1ccc(SC(F)F)cc1	-1.0	-0.6	2	-27	-63	-2.5	2	-2	-6	-4
CC(C)(C)c1ccc(-c2nnc(NC(=O)c3ccccc3)s2)cc1	0.1	1.7	1	.	.	.	8	9	0	-2
CN(CC(=O)Nc1ncn[nH]1)S(=O)(=O)c1ccc(Cl)cc1	-0.1	2.3	-4	5	5	-3.6	.	4	-6	-3
Cc1ccccc1C1CC(c2ccccc2OC(F)F)Nc2ncnn21 (configuration not stated)	0.5	-17	13	.	.	.	-6	-5	-7	6
CC1=C(C(=O)NC(C)CCc2ccccc2)C2(CCC(C)CC2)OC1=O (configuration not stated)	0.6	-3.9	-19	.	.	.	-3	-7	-12	-6
O=C(CCS(=O)(=O)c1cccc2nsnc12)NCc1ccccc1	0.4	-6.3	-9	.	.	.	-3	2	-10	20
CCC1(C)Cc2c(sc3nnn(CC(=O)Nc4cccc5ccccc45)c(=O)c23)CO1 (configuration not stated)	-0.1	0.3	-8	.	.	.	-5	-2	-18	-8
O=C1NC2(NN1c1ccccc1)C1CC3CC(C1)CC2C3 (configuration not stated)	-0.2	3.9	11	.	.	.	-7	-3	-3	-9
O=C(Cn1nnc(-c2ccccc2)n1)NNC(=O)c1ccccc1	1.3	-0.9	-4	11	-1	0.8	-5	7	1	3
CC1Cc2ccccc2N1C(=O)CN(C)CC(=O)Nc1ccc(F)cc1 (configuration not stated)	0.5	1.6	.	-11	-8	1.3	-1	-9	.	.

Additional results
SMILES	A1 inh	LANA-H2A inh	T cruzi inh	Ecoli rRNA inh	Ecoli rRNA inh OD600	Ecoli rRNA inh RFP	Beta cell apopt	B2AR ag	ALR H2O2 inh	Calb FLC
COc1ccc(NC(=S)Nc2cc(C(F)(F)F)ccc2F)cc1	-0.7	-1.1	-18	3	14	2.5	-3	0	.	3
O=C(Cn1cc2c(n1)CCCC2)NCC1CCCO1 (configuration not stated)	0.5	1.9	-3	15	17	2.6	-4	13	2	-3
COc1cccc(NC(=O)CN(C)C(=O)c2cc(S(=O)(=O)N3CCCCCC3)ccc2OC)c1	0.2	-3.6	.	2	5	1.0	1	0	.	.
CCOc1cc(/C=N/NC(=O)COc2cccc(C)c2)ccc1OC(=O)c1cccs1	1.7	-4.1	-5	.	.	.	0	18	-3	-5
Oc1ccccc1-c1nnc(COc2ccccc2)o1	-1.6	-4.9	-7	-9	-17	-0.2	-8	-3	-5	-16
O=C(Nc1ccc(-c2ccc([N+](=O)[O-])cc2)cc1)c1ccccc1F	-1.3	3.3	-6	20	14	0.9	6	-4	-6	0
C=CC[C@@H](CC(=O)NCCO)C(=O)N[C@@H](COC(=O)[C@@H](CC=C)CC(=O)OC(C)(C)C)Cc1c[nH]c2ccccc12	0.4	-4.0	.	19	14	2.9	-3	6	-3	.
CCCCCCCC(=O)OCC(COC(=O)CCCCCCC)OC(=O)CCCCCCC	-0.3	-44	.	0	-2	-0.9	-7	-6	-8	.
Cc1oc(-c2ccc(Cl)cc2)nc1CN1CCCC(C(=O)NC2CC2)C1 (configuration not stated)	-1.3	1.5	43	0	13	-1.2	-2	8	-4	4
Cn1[nH]c(=O)c(Cl)c(Cl)c1=O	2.9	2.3	2	.	.	.	-3	4	4	0
Cc1n[nH]c(C)c1S(=O)(=O)N1CCCC(C(=O)Nc2nccs2)C1 (configuration not stated)	-1.2	-0.2	-8	.	.	.	-1	-15	-4	8
C/C(=N\NC(=O)c1ccccc1)c1cc2cc([N+](=O)[O-])ccc2oc1=O	0.1	.	.	.	.	.	-2	5	16	.
COc1cc(OC)c2ccc(=O)oc2c1C(CC(=O)N1CCCC1)c1ccc2c(c1)OCO2 (configuration not stated)	0.2	-0.2	4	-17	-9	-10	-5	-10	-1	0
Cc1cc(=O)oc2cc(OCC(=O)NCCCn3ccnc3)ccc12	0.5	6.9	-9	6	4	-2.5	-2	1	-6	-10
COc1cccc(NC(=O)CN(C)C(=O)c2c(C)nn(CC(C)C)c2Cl)c1	-1.0	0.6	.	3	9	0.2	3	-2	-2	.
O=C(Nc1cnn(Cc2ccc(Cl)c(Cl)c2)c1)C12CC3CC(CC(C3)C1)C2	1.5	-1.2	44	.	.	.	-1	-4	.	-15
COc1ccccc1C(=O)NCC1(c2ccccc2)CCCC1	1.0	8.0	9	-51	-77	-13	.	-13	-2	9

Bioassay records from PubChem.
